Mtb bLac sens: beta-lactam sensitization of Mtb H37Rv | AID 434955 | hit rate 0.27% among 330,000 | M. tuberculosis H37Rv growth with meropenem, percent inhibition; hits of this screen are not shown here | inhibition, % at 25 µM;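 active = about 74% or more and at least 40 points above the plate without the antibiotic, then above 30% in a dose series; inconclusive = first-round hits that could not be retested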;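 note: growth measured after seven days incubation then overnight dye step; 0% = bacteria only wells and 100% = bacteria with antibiotic; twin plates without the antibiotic show which effects depend on it; some results filed as inactive read as strong as hits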
The depositor's hits bear a star; ? = inconclusive.

SMILES	Mtb bLac sens
CC(NC(=O)CN1C(=O)NC2(CCCCCC2)C1=O)c1ccccc1 (stereo not drawn)	-11.1
O=C(COC(=O)Cc1ccsc1)Nc1ccc(Br)cc1	0.9
Cc1ccc(Nc2nc(N)nc(COC(=O)C3=COCCO3)n2)cc1	47.0
COC(=O)c1ccccc1S(=O)(=O)N1CCC(C(=O)Nc2ccc(N3CCOCC3)cc2)CC1	-5.2
N#Cc1ccc(CN2CCN(C(=O)c3ccc(S(=O)(=O)N4CCCCCC4)cc3)CC2)cc1	0.6
C[C@H](NC(=O)c1nc[nH]c1C(=O)N1CCN(c2ccccc2)CC1)c1ccccc1	-7.1
CC(C)(C)OC(=O)C[C@@H]1C/C=C\C[C@H](CC(=O)N[C@H](CO)Cc2ccccc2)C(=O)N[C@@H](Cc2ccccc2)COC1=O	-2.6
Cc1cccc(N2CC(C(=O)NCC3COc4ccccc4O3)CC2=O)c1C (stereo not drawn)	-1.3
CC1CCCN(C(=O)c2ccc3c(c2)OCCO3)C1 (stereo not drawn)	-2.4
Cc1ccc(/C=N/NC(=O)c2ccc(N(C)S(=O)(=O)c3ccccc3)cc2)cc1	-3.0
CCN(C(=O)COC(=O)Cc1ccc(F)cc1)c1c(N)n(Cc2ccccc2)c(=O)[nH]c1=O	-8.0
O=C(NCc1ccccc1F)c1ccc2c(c1)OCCO2	3.2
O=C(CSc1nc2c(cnn2-c2cccc(Cl)c2)c(=O)[nH]1)NCCC1=CCCCC1	-4.8
CCCCn1c(N)c(N(CCOC)C(=O)c2cc(Cl)nc3ccccc23)c(=O)[nH]c1=O	-4.5
O=C(NCc1ccc(F)cc1)C(c1ccc(F)cc1)N(C(=O)c1csnn1)C1CC1 (stereo not drawn)	-7.2
CCN(c1ccccc1)S(=O)(=O)c1ccc(C(=O)NCC2(N(C)C)CCCCC2)cc1	-5.5
CC(C)CC1NC(=O)c2cc(Cl)ccc2-n2c1nc1ccc(F)cc1c2=O (stereo not drawn)	1.1
CCOc1cc(NC(=O)C2CC2)c(OCC)cc1NC(=O)c1cccc(F)c1	-6.0
C=CCN(Cc1cccc(OC)c1OC)C(=O)Oc1ccccc1	3.9
NS(=O)(=O)c1cccc(NC(=O)CSc2nc3ccccc3c(=O)n2Cc2ccco2)c1	-10.8

In the list so far, these contain an aryl thioether with sulfur outside any ring.
SMILES	Mtb bLac sens
O=C(CSc1nc2c(cnn2-c2cccc(Cl)c2)c(=O)[nH]1)NCCC1=CCCCC1	-4.8
NS(=O)(=O)c1cccc(NC(=O)CSc2nc3ccccc3c(=O)n2Cc2ccco2)c1	-10.8

Continuation.
SMILES	Mtb bLac sens
COc1ccc(C2=NOC(Cn3nc(-c4ccccc4)cc3C(=O)NCc3ccco3)C2)cc1 (stereo not drawn)	5.8
Cc1ccc(C(=O)NCC(=O)OCc2nnc(-c3ccc([N+](=O)[O-])cc3)o2)s1	14.1
CC(NC(=O)COC(=O)/C=C/c1cccc(F)c1)c1ccccc1 (stereo not drawn)	6.4
CC(C#N)(NC(=O)CN1CCN(S(=O)(=O)c2ccc(Br)cc2Cl)CC1)C1CC1 (stereo not drawn)	-7.4
COc1ccc(S(=O)(=O)Nc2ccc3c(c2)C(=O)N([C@H](C)CO)C[C@H](C)[C@@H](CN(C)S(=O)(=O)c2ccc(F)cc2)O3)cc1	9.7
CC1(C)NC(=O)N(CC(=O)N2CCN(S(=O)(=O)c3ccccc3F)CC2)C1=O	0.6
O=C1CC(N2CCN(S(=O)(=O)c3ccc([N+](=O)[O-])cc3)CC2)C(=O)N1c1ccccc1F (stereo not drawn)	-11.5
O=C1COc2ccc(C(=O)COC(=O)c3ccccc3Cl)cc2N1	0.8
COc1ccc(CN(C)C(=O)[C@H](Cc2ccccc2)NC(=O)c2ccco2)c(OC)c1	-5.1
O=C(N[C@H]1C/C=C\C[C@@H](CC(=O)N(CCO)Cc2ccccc2)C(=O)N2CCC[C@H]2COC1=O)OCC1c2ccccc2-c2ccccc21	2.7
COc1ccc(N2CCN(C(=O)CN3C(=O)NC4(CCCCC4C)C3=O)CC2)cc1 (stereo not drawn)	-2.9
COc1cc(N)c(Cl)cc1C(=O)OCC(=O)N1CCc2ccccc21	2.6
O=C(CCCc1ccccc1)Nc1ccccc1[N+](=O)[O-]	5.0
CN(CC(=O)NCc1ccccc1)CC(=O)Nc1ccc(Cl)c(C(F)(F)F)c1	-5.8
Cc1cc(C(=O)NC2CC(C)(C)Cc3c2cnn3-c2cccc(F)c2)nn1C (stereo not drawn)	?
N#Cc1cccc(S(=O)(=O)NCCOc2ccccc2F)c1	1.4
Cc1ccc(S(=O)(=O)N(C)C)cc1NC(=O)COC(=O)c1ccc2ccccc2n1	-4.1
COc1ccc(Cl)cc1NC(=O)COC(=O)C1CC1	25.3
Cc1cc(C)c(S(=O)(=O)N2CCN(C(=O)c3cc4ccccc4oc3=O)CC2)c(C)c1	-7.0
COc1cccc(CN(C)C(=O)c2cc(S(=O)(=O)N3CCCC3)ccc2C)c1OC	-8.8

Reformatted field by field: entries from further up.
> COC(=O)c1ccccc1S(=O)(=O)N1CCC(C(=O)Nc2ccc(N3CCOCC3)cc2)CC1
  Mtb bLac sens = -5.2

> N#Cc1ccc(CN2CCN(C(=O)c3ccc(S(=O)(=O)N4CCCCCC4)cc3)CC2)cc1
  Mtb bLac sens = 0.6

> C[C@H](NC(=O)c1nc[nH]c1C(=O)N1CCN(c2ccccc2)CC1)c1ccccc1
  Mtb bLac sens = -7.1

> CC(C)(C)OC(=O)C[C@@H]1C/C=C\C[C@H](CC(=O)N[C@H](CO)Cc2ccccc2)C(=O)N[C@@H](Cc2ccccc2)COC1=O
  Mtb bLac sens = -2.6

Additional compounds
SMILES	Mtb bLac sens
c1csc(CNc2ncnc3ccc(-c4ccc5c(c4)OCO5)cc23)c1	5.6
COc1ccccc1C(=O)NCCC(=O)NCC1COc2ccccc2O1 (stereo not drawn)	-0.3
CC(=O)C[C@@H](O)CC(=O)[C@H]1OC(=O)[C@H](C)CCCCc2ccccc21	-1.8
COc1cc(N)c(Cl)cc1C(=O)OCC(=O)N1CCCCCC1	1.3
C[C@@H]1CN([C@@H](C)CO)C(=O)Cc2cc(NC(=O)C3CCCCC3)ccc2O[C@H]1CN(C)S(=O)(=O)c1ccccc1	-7.8
Cc1cc(C(=O)OCC(=O)NCCc2ccc(S(N)(=O)=O)cc2)c2ccccc2n1	-1.8
O=C(NCCOc1ccccc1)c1ccc2c(c1)S(=O)(=O)c1cc(Cl)ccc1C2=O	2.0
CN(C(=O)Cn1nc(C(=O)O)c2ccccc2c1=O)C1CCCCC1	3.3
C/C(=C\c1cc2ccccc2o1)C1Nc2cccc3cccc(c23)N1	38.6
CC1CCCC(NC(=O)COc2ncnc3ccccc23)C1C (stereo not drawn)	-7.6
Cc1ccccc1OCCC(=O)N(CC(C)C)c1c(N)n(Cc2ccccc2)c(=O)[nH]c1=O	1.0
Oc1ccccc1CN1CCN(C(c2ccccc2)c2ccccc2)CC1	0.7
CCCN(C(=O)/C=C/c1ccc(S(=O)(=O)N(CC)CC)cc1)C1CCS(=O)(=O)C1 (stereo not drawn)	-6.9
O=C(NNC(=O)c1ccc(Br)s1)c1cccc(Cl)c1	1.4
CCN1C(=O)[C@H]2[C@@H](c3ccc(-c4cccc(Cl)c4)c(OC)c3)N3CCC[C@@]3(C(=O)OC)[C@H]2C1=O	-2.9
CCCn1c(N)c(C(=O)CSc2nnc3n2CCCCC3)c(=O)n(C)c1=O	2.4
CN(Cc1ccccc1)C(=O)c1ccc(NC(=O)Cc2cccc(NC(=O)C3CCN(C(=O)C4CC4)CC3)c2)cc1	11.0
C#CCOCCOCCOCCNc1nc(N2CCN(C(=O)CCCCCCCCCCNC(=O)[C@H](CCCN=C(N)N)n3cc(C[C@@H](C)CC)nn3)CC2)nc(N2CCN(C(=O)CCCCCCCCCCNC(=O)[C@@H]([C@H](C)CC)n3cc(CCCCCN)nn3)CC2)n1	99.0
CC(=O)c1ccc(NC(=O)C(C)Sc2nnc3ccccn23)cc1 (stereo not drawn)	-2.8
Oc1ccc(Cl)cc1CNCc1cccc2ccccc12	25.1
C=CCn1c(C)cc(C(=O)COC(=O)c2n[nH]c(=O)c3ccccc23)c1C	2.5
COc1cc(-c2ccc(N)c(OC)c2)ccc1N	-3.5
O=C(COC(=O)/C=C/c1ccc(Cl)c(Cl)c1)NC1CCS(=O)(=O)C1 (stereo not drawn)	-6.3
CC(C)(C)c1ccccc1NC(=O)c1cc(-c2ccncc2)nc2ccccc12	3.9
CC1CN(C(=S)Nc2cccc(F)c2)CC(C)O1 (stereo not drawn)	-6.1
CCCCn1c(N)c(N(CC)C(=O)COc2ccc(C#N)cc2)c(=O)[nH]c1=O	6.8
Cc1ccc(C(=O)OCC(=O)NC2CC2)s1	3.2
COc1cccc(CNC(=O)CN(C)S(=O)(=O)c2ccc(Br)s2)c1	-1.1
CC(NC(=O)c1cc(S(=O)(=O)N(C)C)ccc1Cl)C1CC2CCC1C2 (stereo not drawn)	-6.8
COc1ccc(CN2CCN(C(=O)c3c(-c4ccccc4)noc3C)CC2)cc1F	-3.6
O=C(COC(=O)COc1ccc(Br)cc1)NC1CCCCCC1	-3.1
O=c1cnc2ccccc2n1Cc1ccccc1C(F)(F)F	4.3
N#Cc1c(SCC(=O)Nc2nncs2)sc2c(O)cc(=O)[nH]c12	0.1
CCN(C(=O)COC(=O)Cc1ccccc1)c1c(N)n(Cc2ccccc2)c(=O)[nH]c1=O	0.6
C[C@H](CO)N1C[C@H](C)[C@@H](CN(C)S(=O)(=O)c2cccs2)Oc2c(NS(=O)(=O)c3ccccc3)cccc2C1=O	-6.3
Cc1cccc(NS(=O)(=O)c2cccc(C(=O)Nc3cccc(C(=O)O)c3)c2)c1	4.9
CC(=O)C[C@H](O)CC(=O)[C@@H]1OC(=O)CCCCCc2ccccc21	1.0
CCCCCc1nnc(NC(=O)CN2C(=O)C3CCCCC3C2=O)s1 (stereo not drawn)	-4.2
COc1ccc(NCC(=O)NN=C2CCS(=O)(=O)c3ccc(F)cc32)cc1	1.7
Cc1nnc2ccc(-c3ccc(NS(=O)(=O)c4ccccc4[N+](=O)[O-])cc3)nn12	-8.6

2 entries picked at random from the list so far, as already listed:
SMILES	Mtb bLac sens
COc1ccc(CN2CCN(C(=O)c3c(-c4ccccc4)noc3C)CC2)cc1F	-3.6
O=C(COC(=O)COc1ccc(Br)cc1)NC1CCCCCC1	-3.1

Remaining list, next part
SMILES	Mtb bLac sens
Cc1ccc(S(=O)(=O)N2CCCCC2)cc1C(=O)N1C(C)CCCC1C (stereo not drawn)	4.9
C/C=C/c1ccc2c(c1)OCO2	13.2
CN1CCC(N(C)S(=O)(=O)c2ccc(NC(=O)Cc3ccc(F)cc3)cc2)CC1	-1.9
Cc1ccc(NC(=O)Cc2n[nH]c(=O)c3ccccc23)cc1S(=O)(=O)N1CCCCCC1	62.8
CC(C)Oc1ccc(C(=O)NCC(=O)N2CCN(S(=O)(=O)/C=C/c3ccccc3)CC2)cc1	-4.3
O=C(COc1cccc(Cl)c1)NCC(c1cccs1)N1CCOCC1 (stereo not drawn)	11.9
CC(=O)c1cccc(S(=O)(=O)Nc2c(C)nn(C)c2C)c1	-10.1
Cc1ccnc(Nc2nc(-c3ccc(F)cc3)cs2)c1	7.8
Cc1cccc(NC(=O)CN2CCN(C(=O)c3cccc(-n4cnnn4)c3)CC2)c1C	1.3
Cc1cccc(NC(=O)C2CCCCN2S(=O)(=O)c2ccccc2)c1C (stereo not drawn)	-10.9
Cc1c(C(=O)OCC(=O)N2CCN(c3ccccc3)CC2)oc2ccccc12	-0.8
O=C(NCC(c1ccco1)N1CCCCC1)c1cc2c(s1)CCCC2 (stereo not drawn)	4.0
CC1CN(S(=O)(=O)c2cccc(C(=O)Nc3cc(Cl)ccc3N3CCOCC3)c2)CC(C)O1 (stereo not drawn)	9.9
O=C(COC(=O)Cc1ccccc1F)NCc1ccc(Cl)cc1	1.4
Cc1ccc(Cl)c(NC(=O)CSc2n[nH]c(=O)n2C2CC2)c1Cl	-8.9
CN1CCN(NC(=O)c2c(-c3ccccc3)sc3ccccc23)CC1	-3.2
N#CCCN(C(=O)COC(=O)c1ccc(S(=O)(=O)N2CCCC2)cc1)c1cccc(Cl)c1	0.5
Cc1ccc(CN2CC(=O)N3[C@H]4c5cc(C)ccc5OC[C@@H]4[C@H](c4ccccc4)[C@]3(C)C2=O)cc1	9.0
NC(=O)C1CCCN(CC(=O)Nc2ccccc2C(=O)NC2CC2)C1 (stereo not drawn)	1.0
C=CCNc1nc2c(c(=O)[nH]c(=O)n2C)n1CCCc1ccccc1	-15.9
CC(NC(=O)CN1C(=O)NC2(CCCCCCC2)C1=O)c1ccccc1 (stereo not drawn)	-2.8
O=C(COC(=O)CNC(=O)c1ccccc1F)Nc1ncc(Cl)cc1Cl	-8.6
COc1cc(OC)cc(C(=O)NNC(=O)CCCOc2ccccc2)c1	-6.7
O=C(OCc1cc(=O)n2ccsc2n1)c1ccccc1NCCO	-2.4
CCN(CC(=O)Nc1cc(Cl)ccc1-n1cncn1)Cc1nc2ccccc2c(=O)[nH]1	4.3
Cc1ccc(C2=CC(=O)C[C@H](c3ccc(Cl)cc3)C2)cc1	39.3
O=C1CN(C(=O)COC(=O)CCc2ccccc2)c2ccccc2N1	-4.9
COc1c(O[C@@H]2O[C@H](CO)[C@@H](O)[C@H](O)[C@H]2O)cc2c(c1OC)-c1ccc(SC)c(=O)cc1C(NC(C)=O)CC2 (stereo partly drawn)	2.5
COCc1ccc(-c2c(-c3cc(OC)cc(OC)c3)oc(=O)c3cc(OC)c(OC)cc23)cc1	34.7
COc1cccc(CC(=O)NC2CCSc3ccccc32)c1 (stereo not drawn)	-11.9
CC1CC(C)(C)CC2(C1)NC(=O)N(CC(=O)Nc1ccc3[nH]c(=O)[nH]c3c1)C2=O (stereo not drawn)	-4.1
CS(=O)(=O)Nc1nnc(CCc2ccccc2)s1	8.7
CC(C)Sc1nnc(SCC(=O)NCCCN2CCCC2=O)s1	-5.8
O=C(Cc1ccc(Br)cc1)NC1CCCc2ccccc21 (stereo not drawn)	-2.8
CC(C)Cc1nnc(NC(=O)CCNC(=O)c2ccco2)s1	-6.8
Cn1c(N)c(C(=O)COC(=O)CNC(=O)c2ccccc2F)c(=O)n(C)c1=O	0.8

Not all compounds are listed (hit frequency here may not be typical).
